GCN5L2 inh: inhibitors of human GCN5L2 histone acetyltransferase | Q92830 | GCN5L2 HAT assay, ThioGlo1 CoA-SH fluorescence | Potency, µM (doses to about 58.9 µM), inactives show at the highest dose activity change, negative = inhibition, hits mostly inhibitors | 0.21% of 390,000 active
Target sequence (Q92830 whole entry, looked up): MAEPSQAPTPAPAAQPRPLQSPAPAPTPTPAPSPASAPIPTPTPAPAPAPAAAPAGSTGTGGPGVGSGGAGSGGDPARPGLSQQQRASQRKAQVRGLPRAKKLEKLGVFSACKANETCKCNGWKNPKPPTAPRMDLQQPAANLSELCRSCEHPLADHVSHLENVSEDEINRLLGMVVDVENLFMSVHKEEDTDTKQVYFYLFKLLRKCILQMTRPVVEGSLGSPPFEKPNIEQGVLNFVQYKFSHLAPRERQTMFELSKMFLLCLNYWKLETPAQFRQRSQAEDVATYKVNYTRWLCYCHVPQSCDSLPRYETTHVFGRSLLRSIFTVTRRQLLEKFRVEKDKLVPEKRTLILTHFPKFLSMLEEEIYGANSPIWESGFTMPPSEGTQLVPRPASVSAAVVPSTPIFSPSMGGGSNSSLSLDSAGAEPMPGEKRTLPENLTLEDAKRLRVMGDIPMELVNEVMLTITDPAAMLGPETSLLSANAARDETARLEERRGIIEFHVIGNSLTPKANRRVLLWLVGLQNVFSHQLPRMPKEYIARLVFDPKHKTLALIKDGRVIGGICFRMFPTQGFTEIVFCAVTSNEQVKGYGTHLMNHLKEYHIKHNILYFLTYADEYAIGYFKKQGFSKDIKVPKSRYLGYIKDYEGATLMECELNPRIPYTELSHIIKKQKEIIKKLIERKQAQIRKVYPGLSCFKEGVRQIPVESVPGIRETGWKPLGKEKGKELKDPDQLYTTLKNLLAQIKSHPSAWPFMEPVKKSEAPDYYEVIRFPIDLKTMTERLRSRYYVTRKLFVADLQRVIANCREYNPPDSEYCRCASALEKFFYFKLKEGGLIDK
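Enzyme at 20nM final was mixed with library compounds for 15 min at room temperature. Peptide H3(1-25) at 75uM, acetyl-CoA at 70uM and ThioGlo1 at 50uM were then added. Plates were read immediately and after 20 min (Ex340nm/Em540nm).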
FEN1 inhibitor: blocks human flap endonuclease 1; P39748; Recombinant FEN1 flap cleavage, fluorescence, 15 min; Potency, µM (top dose mostly 114 µM), inactives show at the top dose activity change, negative = inhibition, actives largely listed as inhibitors; 0.35% of 390,000 active; AID 588795; also: nearly all actives have a fitted effect of over 65% in size
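Quantitative HTS format: each compound was titrated, incubated with 10 nM nuclease for 15 min at room temperature, then challenged with flap substrate at 50 nM final. Signal change over 15 min gave concentration–effect curves.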
* = called active by the depositor; ? = inconclusive; . = not tested or not shown; & = joins results of further samples; [ ] = dose if it differs, or a comment. Calls follow the shape of the dose curve; as a rule, active = well fitted curve in the direction sought with a large enough effect; inconclusive = small, poorly fitted or top-dose-only effect, or another doubt; inactive = no such curve, though single readings can be large; an effect the other way counts as inactive or inconclusive. % is scaled to controls: 0 for no effect and ±100 for the full control effect; potency is read from the fitted curve at half-maximal effect. Only part of the results is shown, and most or all hits are left out here.

GCN5L2 inh	FEN1 inhibitor	SMILES
2%	1%	COc1cc(C(=O)NCCNC(=O)c2ccc(C)nc2)cc(OC)c1OC
-3%	-13%	Cc1ccc(S(=O)(=O)CCC(=O)O)cc1C
0%	-3%	COc1ccc(-c2noc(CCCC(=O)NC3CCCC3)n2)cc1OC
-5%	6%	O=C(NCc1cccc(Cl)c1)c1ccc(NC(=O)N2CCSc3ccccc32)cc1
-3%	6%	COc1ccc(-c2nn(CC(=O)NCCc3ccccc3)c(=S)n2C)cc1
-1%	-3%	Cc1cc2nnc(SC(C)C)n2c2ccccc12
-1%	7%	COC(=O)[C@H](Cc1ccccc1)NC(=O)[C@@H]1C[C@H]1[C@@H](NC(=O)OCc1ccccc1)c1ccccc1
1%	-11%	Cc1ccc2c(c1)CCCN2C(=O)c1cc(C)on1
38%[activator]	5%	COC(=O)C(CC(C)C)NC(=O)c1ccc([N+](=O)[O-])cc1 (configuration not stated)
-5%	0%	COc1cccc(S(=O)(=O)Nc2ccc(C(=O)N3CCN(C(=O)c4ccco4)CC3)cc2)c1
-5%	8%	CS(=O)(=O)Cc1ccc(C(=O)NNC(=O)c2cc(-c3ccccc3)n[nH]2)cc1
-10%	-5%	Cc1cc(/C=N/NC(=O)Cn2c3ccccc3c(=O)c3ccccc32)c(C)n1-c1ccccc1
-1%	-7%	O=c1cc2c(nn1Cc1ccc(Cl)cc1Cl)-c1ccccc1CC2
-4%	-13%	O=C(/C=C/c1cccc([N+](=O)[O-])c1)OC1CCCCC1=O (configuration not stated)
-7%	12%	COc1ccc(NC2CCCN(C(=O)CCc3cccc(F)c3)C2)cc1 (configuration not stated)
-7%	-24%	c1ccc(-c2ccc(-c3ccccn3)s2)nc1
-4%	10%	COc1ccc(S(=O)(=O)N(CC(=O)N/N=C/c2cccs2)c2ccc(C)cc2)cc1OC
-2%	-8%	Cn1ncc(Br)c1C(=O)NC1CCCCCC1
4%	10%	Cc1[nH]c(C)c(S(=O)(=O)N(C)Cc2ccccc2)c1C(=O)N1CCCC1
-7%	-11%	CC(C)Cn1c(=S)[nH]c2cc(C(=O)NCc3ccccc3F)ccc2c1=O

(continued)
GCN5L2 inh	FEN1 inhibitor	SMILES
-18%	9%	CCOC(=O)N1CCC(c2cc(=O)n3[nH]c(C)c(-c4ccc(F)cc4)c3n2)CC1
0%	-18%	O=C(c1ccc(Cl)c([N+](=O)[O-])c1)N(Cc1ccco1)C1CCS(=O)(=O)C1 (configuration not stated)
-15%	12%	CCOc1ccccc1-n1c(COc2ccccc2)nnc1SCC(N)=O
0%	1%	N#Cc1c(C(F)(F)F)cc(-c2ccc(Cl)c(Cl)c2)nc1SCCN1CCOCC1
-4%	-7%	COc1ccccc1N1CC(C(=O)Nc2ccc(S(=O)(=O)N3CCCC3)cc2)CC1=O (configuration not stated)
0%	-2%	CCC1(CC)NC(=O)N(CC(=O)OCc2nc3cc(C(=O)OC)ccc3c(=O)[nH]2)C1=O
-8%	-18%	CCN1C(=O)[C@@H]2[C@@H](c3ccc(-c4ccc(Cl)c(Cl)c4)c(OC)c3)N3CCCC[C@@]3(C(=O)OC)[C@@H]2C1=O
-2%	1%	CSc1ccc(CN2C(=O)NC3(CCCCCC3)C2=O)cc1
-3%	-1%	COc1ccccc1NC(=O)CN1CCCCC1
-18%	20%	Cc1ccc(S(=O)(=O)N2CCN(C)CC2)cc1C
-9%	-21%	CN1/C(=C\C(=O)COC(=O)c2ccccc2O)C(C)(C)c2ccccc21
1%	8%	COCCn1c(CCC(=O)O)nc2c1c(=O)[nH]c(=O)n2CC(C)C
6%	6%	COc1ccc(OC)c(CN2CCN(C(=O)[C@@H](NC(=O)c3cccc(C)c3)C(C)C)CC2)c1
-9%	20%	OCc1ncc(-c2ccccc2)s1
?	2%	N#Cc1nc(-c2ccco2)oc1NCCc1ccccc1
2%	-11%	CCCc1cc(=O)[nH]c(SCC(=O)N(CC)C2CCS(=O)(=O)C2)n1 (configuration not stated)
1%	8%	Cc1ccc(N2C(=O)CSC23C(=O)N(CC(=O)NCc2ccccc2)c2ccccc23)cc1 (configuration not stated)
-6%	-19%	CCCc1nn(-c2cc(Cl)ccc2OC)c2c1C(=O)CC(C)(C)C2
-1%	14%	COCCNc1ccc(N2C(=O)C3CCCCC3C2=O)cc1[N+](=O)[O-] (configuration not stated)
-8%	-3%	Cc1cccc(NS(=O)(=O)c2ccc(C)c(NS(=O)(=O)c3cccs3)c2)c1

3 entries drawn at random from the list so far, as already listed:
GCN5L2 inh	FEN1 inhibitor	SMILES
-2%	1%	CSc1ccc(CN2C(=O)NC3(CCCCCC3)C2=O)cc1
?	2%	N#Cc1nc(-c2ccco2)oc1NCCc1ccccc1
6%	6%	COc1ccc(OC)c(CN2CCN(C(=O)[C@@H](NC(=O)c3cccc(C)c3)C(C)C)CC2)c1

3 structures out of the list, sorted by number of heavy atoms, largest number first:
GCN5L2 inh	FEN1 inhibitor	SMILES
-8%	-18%	CCN1C(=O)[C@@H]2[C@@H](c3ccc(-c4ccc(Cl)c(Cl)c4)c(OC)c3)N3CCCC[C@@]3(C(=O)OC)[C@@H]2C1=O
0%	1%	N#Cc1c(C(F)(F)F)cc(-c2ccc(Cl)c(Cl)c2)nc1SCCN1CCOCC1
-6%	-19%	CCCc1nn(-c2cc(Cl)ccc2OC)c2c1C(=O)CC(C)(C)C2

An excerpt from above in order of their number in FEN1 inhibitor, largest number first.
GCN5L2 inh	FEN1 inhibitor	SMILES
?	2%	N#Cc1nc(-c2ccco2)oc1NCCc1ccccc1
0%	-2%	CCC1(CC)NC(=O)N(CC(=O)OCc2nc3cc(C(=O)OC)ccc3c(=O)[nH]2)C1=O
-8%	-3%	Cc1cccc(NS(=O)(=O)c2ccc(C)c(NS(=O)(=O)c3cccs3)c2)c1

Following part:
GCN5L2 inh	FEN1 inhibitor	SMILES
-22%	4%	COc1ccc(C(=O)N2CCCC(N3CCN(c4ccccc4OC)CC3)C2)c(OC)n1 (configuration not stated)
-1%	-5%	O=S(=O)(NCc1cccc(Br)c1)c1ccc(-c2cc(C(F)(F)F)on2)s1
-5%	-3%	O=S(=O)(c1ccccc1)N1CCN(c2nc3ccccc3s2)CC1
-10%	-16%	CCOC(=O)C1CCCN(c2c(C(=O)c3ccc(C)cc3)cnc3ccc(OCC)cc23)C1 (configuration not stated)
-9%	-1%	OC1(c2ccc(F)cc2)CN(c2ccccc2)C2=[N+]1CCS2 (configuration not stated)
-1%	-11%	CNS(=O)(=O)c1ccc(C(=O)NCC(=O)NCCc2ccc3c(c2)OCCO3)cc1
-1%	1%	NC(=O)c1cc(S(=O)(=O)NCCc2ccc(S(N)(=O)=O)cc2)cs1
0%	-34%	CCOC(=O)C(C(=O)Nc1ccccc1C)C1CCCCC1 (configuration not stated)
-23%	-5%	CN(C)C(=O)C(=O)c1c(-c2ccccc2)cc2ccccn12
-7%	1%	COc1cc(/C=C/C(=O)O)cc(S(=O)(=O)NC2CCCC2)c1OC
-4%	-3%	O=C1[C@H]2[C@H](ON3CCCC[C@H]23)C(=O)N1c1ccc(Cl)cc1
-7%	-18%	CCN(C(=O)CSc1nc2ccccc2n1CC(=O)Nc1cccc(C#N)c1)c1ccccc1
-1%	8%	Cc1ccc(-n2c(C3CC3c3ccc(Cl)cc3)n[nH]c2=S)cc1 (configuration not stated)
-10%	32%	CN1CCN(C(=O)Nc2cccc(Cl)c2)c2cccnc21
-25%	-26%	O=C1c2ccccc2C(Nc2ccc(Cl)cn2)N1Cc1ccccc1 (configuration not stated)
-4%	19%	COc1ccc(OC)c(S(=O)(=O)NC(N)=NCCc2ccccc2)c1
1%	-5%	O=C(c1nc2ccc(Cl)cn2c1CNCCc1cnccn1)N1CCCCCCC1
.	-8%&-11%	CC(C)c1ccc2c(c1)CC[C@H]1[C@](C)(CN)CCC[C@]21C
1%	-13%	COc1ccc(C(=O)NCc2cccc(Cl)c2)cc1S(=O)(=O)N1CCOCC1
-6%	-3%	O=C(CNC(=O)Cc1ccccc1)NCC(=O)N1CCCCC1

Continued.
GCN5L2 inh	FEN1 inhibitor	SMILES
-2%	-7%	COc1ccc(CCNC(=O)CCN2N=C(c3ccccc3)CCC2=O)cc1OC
-2%	8%	O=C(COC(=O)Cc1ccc(Br)cc1)NC1CCCCCC1
-5%	-13%	COCCCNC(=O)C1CCN(S(=O)(=O)c2c(C)noc2/C=C\c2ccc(OC)cc2)CC1
1%	5%	Cc1nc(-c2nc(-c3c(C(=O)NN)noc3C)cs2)cs1
0%	-24%	CC(C)C[C@H](NC(=O)[C@@H]1Cc2ccccc2CN1)C(=O)Nc1ccc(C(C)C)cc1
-3%	0%	CCOC(=O)[C@H]1[C@H]2COc3ccc(OC)cc3[C@@H]2N2C(=O)CN(Cc3ccc(Cl)cc3)C(=O)[C@@]12C
-7%	-2%	N/C(=C/C(=O)c1ccccc1O)C(F)(F)F
-26%	-13%	CCOc1ccc(S(=O)(=O)Nc2ccccc2C(=O)NCc2ccco2)cc1
-18%	6%	COc1ccc(OC)c(NC(=O)Cn2c(=O)cc(C)c3c(C)nn(-c4cccc(Cl)c4C)c32)c1
-1%	-3%	CCn1c(CNC(=O)c2ccccc2F)cc2ccccc21
-3%	-3%	Cn1cccc1Cc1nnc(SCC(N)=O)n1CCc1ccccc1
-16%	-7%	O=C(CSc1nc2ncccc2[nH]1)c1ccc2c(c1)OCO2
-5%	-8%	CSc1nnc(C)c(=O)n1COC(=O)c1ccc(S(=O)(=O)N(C)C)cc1
-23%&0%	-2%	Cc1ccc(S(=O)(=O)N2CCC(=O)N(CCOC(=O)Nc3ccc(C)c(C)c3)CC2)cc1
2%	-11%	Cc1c(Cl)cccc1NC(=O)CCCn1nc([N+](=O)[O-])cc1C
-11%	-3%	CSc1cccc(NC(=O)/C=C/c2ccccc2)c1
-17%	8%	CN1CCN(c2ccccc2NC(=O)c2c(F)cccc2F)CC1
-1%	1%	O=C(NCc1ccco1)c1nn2c(C(F)(F)F)cc(-c3cccs3)nc2c1Br
0%	8%	CCC(=O)NCCCCCCNC(=O)CC
0%	1%	O=c1cc(C(F)(F)F)[nH]c(=O)n1C1CCCCC1

Record cards, from the list above. Order of values: GCN5L2 inh	FEN1 inhibitor
Shown for CCC(=O)NCCCCCCNC(=O)CC : 0%	8%
Shown for COc1cccc(S(=O)(=O)Nc2ccc(C(=O)N3CCN(C(=O)c4ccco4)CC3)cc2)c1 : -5%	0%
Shown for Cn1cccc1Cc1nnc(SCC(N)=O)n1CCc1ccccc1 : -3%	-3%

The listing continues.
GCN5L2 inh	FEN1 inhibitor	SMILES
-9%	-17%	CCN(CC)CCCNc1oc(-c2ccc(OC)c(OC)c2)nc1C#N
0%	-4%	COc1ccc(NC(=O)CN(C)S(=O)(=O)c2ccc3c(c2)CC(C)N3C(C)=O)cc1OC (configuration not stated)
0%	-1%	O=C(NCC1CCCO1)c1cccc(Br)c1 (configuration not stated)
1%	-14%	Cc1cccc(OCC(=O)NNC(=O)c2ccccc2OCc2c(C)noc2C)c1
-3%	7%	Cc1cc(CN(C)C(=O)CC2C(=O)NCCN2Cc2ccc(-c3ccccc3)cc2)on1 (configuration not stated)

Source: PubChem BioAssay
